Polio RdRp inh: poliovirus RNA polymerase inhibition | hit rate 0.66% among 150,000 | poliovirus polymerase elongation, fluorescence polarization; active compounds read low | AID 588519 | P03300 | % elongation, % (compound at 16.7 µg/mL); in the data active means % elongation below about 90%; further: some results filed as inactive read as strong as hits
Target sequence (P03300 1749-2209 limits assumed): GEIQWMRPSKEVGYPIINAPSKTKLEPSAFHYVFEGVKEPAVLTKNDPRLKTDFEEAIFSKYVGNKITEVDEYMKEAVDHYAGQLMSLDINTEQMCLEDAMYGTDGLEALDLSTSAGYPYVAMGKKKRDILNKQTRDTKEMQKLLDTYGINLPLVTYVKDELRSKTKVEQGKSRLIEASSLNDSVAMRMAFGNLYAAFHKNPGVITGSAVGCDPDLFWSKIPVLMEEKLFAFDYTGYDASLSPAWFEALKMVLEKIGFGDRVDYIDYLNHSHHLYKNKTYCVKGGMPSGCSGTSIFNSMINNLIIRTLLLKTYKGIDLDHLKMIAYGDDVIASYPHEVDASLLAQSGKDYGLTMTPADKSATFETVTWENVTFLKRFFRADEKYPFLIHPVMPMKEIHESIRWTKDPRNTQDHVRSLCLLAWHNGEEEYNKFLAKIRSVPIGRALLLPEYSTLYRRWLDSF
Polio RdRp inh intensity: second read-out of Polio RdRp inh, no call of its own (marks repeat the call); % elongation; measured here: total intensity read-out; formula for this scale not given here;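 total fluorescence in place of polarization; lower means less elongation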
* marks the source's active call; other numbers are inactive results. Only part of the results is shown. The share of hits here may be higher or lower than overall.

SMILES | Polio RdRp inh | Polio RdRp inh intensity
Cc1cc2ccccc2n1CCNC(=O)c1ccc(F)cc1 | 106.0 | 106.0
O=S(=O)(NCc1nc2cccnc2n1Cc1ccc(F)cc1)c1ccc2c(c1)CCCC2 | 110.0 | 116.0
CCOc1ccc(NC(=O)CSc2cc(C)c3ccccc3n2)cc1 | 100.0 | 95.0
COc1ccccc1NC(=O)c1cc2ccc3cccnc3c2[nH]1 | 101.0 | 109.0
COc1ccc(OC)c(NC(=O)[C@H](Cc2ccccc2)N2Cc3ccccc3C2=O)c1 | 107.0 | 107.0
CC1CCCCN1Cc1nc2c(c(=O)n(C)c(=O)n2C)n1Cc1ccc(Br)cc1 (configuration not stated) | 108.0 | 111.0
CCOc1ccc(CCNC(=O)CCc2c(C)nc3c(c(C)nn3-c3ccc(C)c(C)c3)c2C)cc1 | 111.0 | 113.0
COc1ccc(-c2nc3sc(CCNC(=O)Cc4ccc(F)cc4)c(C)n3n2)cc1 | 110.0 | 108.0
CC(C)COc1ccc(C(=O)Nc2scc(-c3ccc(Br)cc3)c2C(=O)OC(C)C)cc1 | 102.0 | 104.0
CCOC(=O)Cn1c(=O)oc2cc(S(=O)(=O)N3CCN(c4ccccc4OC)CC3)ccc21 | 104.0 | 108.0
COc1ccc(-c2noc(N3CCC(C(=O)Nc4ccc(C)c(F)c4)CC3)n2)cc1OC | 105.0 | 110.0
Cn1c(C(=O)NCc2ccc(Cl)cc2)cc2c(=O)n(C)c3ccccc3c21 | 104.0 | 105.0

Among those listed so far, these contain a halogen:
SMILES | Polio RdRp inh | Polio RdRp inh intensity
Cc1cc2ccccc2n1CCNC(=O)c1ccc(F)cc1 | 106.0 | 106.0
O=S(=O)(NCc1nc2cccnc2n1Cc1ccc(F)cc1)c1ccc2c(c1)CCCC2 | 110.0 | 116.0
CC1CCCCN1Cc1nc2c(c(=O)n(C)c(=O)n2C)n1Cc1ccc(Br)cc1 (configuration not stated) | 108.0 | 111.0
COc1ccc(-c2nc3sc(CCNC(=O)Cc4ccc(F)cc4)c(C)n3n2)cc1 | 110.0 | 108.0
CC(C)COc1ccc(C(=O)Nc2scc(-c3ccc(Br)cc3)c2C(=O)OC(C)C)cc1 | 102.0 | 104.0
COc1ccc(-c2noc(N3CCC(C(=O)Nc4ccc(C)c(F)c4)CC3)n2)cc1OC | 105.0 | 110.0
Cn1c(C(=O)NCc2ccc(Cl)cc2)cc2c(=O)n(C)c3ccccc3c21 | 104.0 | 105.0

The results go on.
SMILES | Polio RdRp inh | Polio RdRp inh intensity
CCOc1ccccc1CNC(=O)C1=C(C)C(=O)OC12CCN(C(C)=O)CC2 | 113.0 | 108.0
COc1cc2c(=O)c(S(=O)(=O)c3ccc(C(C)C)cc3)cn(Cc3ccccc3C)c2cc1OC | 105.0 | 110.0
Cc1ccc(-c2ccc(=O)n(CC(=O)Nc3ccc(C)cc3Cl)n2)cc1 | 111.0 | 116.0
CCOC(=O)c1c(NC(=O)c2cc(-c3ccccc3OC)on2)sc(C)c1C | 73.0* | 73.0*
CCCn1ccc2c(OCC(=O)Nc3ccc(C(F)(F)F)cc3)cccc2c1=O | 108.0 | 112.0
COC(=O)c1c(NC(=O)/C(C#N)=C/c2ccc(OC)cc2)sc2c1C(C(=O)OC)CC2 (configuration not stated) | 105.0 | 111.0
CCOCCCNC(=O)Cn1nc(C)n2c(cc3cc(C)ccc32)c1=O | 110.0 | 112.0
CCOc1ccccc1NC(=O)C(=O)NCCc1sc2nc(-c3ccc(OC)cc3)nn2c1C | 107.0 | 105.0
Cc1ccc(-n2ncc(C(=O)NCc3ccc4c(c3)OCO4)c2C2CCN(C(=O)OC(C)(C)C)CC2)cc1C | 100.0 | 98.0
CCN(c1cccc(C)c1)S(=O)(=O)c1nnc(NC(=O)c2cccs2)s1 | 109.0 | 114.0
COc1ccc(OC)c(CNC(=O)C2CCCCN2S(=O)(=O)c2ccc(F)cc2)c1 (configuration not stated) | 109.0 | 112.0
CC(=O)Nc1cc(-c2nc3ccccc3s2)ccc1C | 102.0 | 102.0
CCOC(=O)c1c(NC(=O)c2cc3nc(-c4ccccc4)cc(C(F)(F)F)n3n2)sc2c1CCC(C)C2 (configuration not stated) | 100.0 | 105.0
Cc1cc(NC(=O)C2CCCN(S(=O)(=O)c3cccc4nonc34)C2)ccc1Br (configuration not stated) | 105.0 | 109.0
COc1ccc(F)cc1S(=O)(=O)NCCc1c(C)[nH]c2c(Cl)cccc12 | 102.0 | 105.0
Cc1oc(-c2ccccc2F)nc1CSCC(=O)NCCc1ccccc1 | 107.0 | 106.0
COc1ccc(S(=O)(=O)c2cn(CC(=O)Nc3cc(C)ccc3C)c3ccccc3c2=O)cc1 | 112.0 | 114.0
COc1cccc(Cc2nc3ccccc3nc2SCC(=O)Nc2cc(OC)ccc2OC)c1 | 111.0 | 116.0
Cc1ccc(Cl)cc1N1CCN(S(=O)(=O)c2ccc(-c3cnc(C4CC4)o3)cc2)CC1 | 107.0 | 100.0
CCOCCCNC(=O)C(c1ccc(OC)cc1)N(Cc1ccc2c(c1)OCO2)C(=O)c1ccc(NC(C)=O)cc1 (configuration not stated) | 104.0 | 100.0
N#Cc1nc(-c2ccc(COc3ccc(Cl)cc3)o2)oc1N1CCC(C(N)=O)CC1 | 110.0 | 115.0
COc1cccc(NC(=O)c2nnn(Cc3cccc(C(F)(F)F)c3)c2N)c1 | 103.0 | 107.0
CC1CCN(S(=O)(=O)c2nnc(NC(=O)c3cccc(F)c3)s2)CC1 | 103.0 | 105.0
CC(NC(=O)C1CCN(C(=O)N2CCOc3ccccc32)CC1)c1ccccc1 (configuration not stated) | 110.0 | 114.0

Quoted at random: two entries already listed, in no set order.
SMILES | Polio RdRp inh | Polio RdRp inh intensity
COC(=O)c1c(NC(=O)/C(C#N)=C/c2ccc(OC)cc2)sc2c1C(C(=O)OC)CC2 (configuration not stated) | 105.0 | 111.0
COc1ccc(-c2noc(N3CCC(C(=O)Nc4ccc(C)c(F)c4)CC3)n2)cc1OC | 105.0 | 110.0

(further entries)
SMILES | Polio RdRp inh | Polio RdRp inh intensity
Cc1ccc2onc(CNC(=O)Nc3ccccc3C#N)c2c1 | 110.0 | 115.0
COc1ccccc1CNC(=O)C(Cc1ccccc1)NS(=O)(=O)c1ccc2c(c1)CCN2C(C)=O (configuration not stated) | 101.0 | 105.0
CCCCC(=O)Nc1nnc(S(=O)(=O)N(C)Cc2ccccc2)s1 | 107.0 | 102.0
COc1ccccc1CCNC(=O)C(C)Sc1nc(-c2ccccc2)cc(C(F)(F)F)n1 (configuration not stated) | 101.0 | 98.0
Cc1ccc(NS(=O)(=O)c2c(C(=O)N3CCCCCC3)c(C)n(C)c2C)cc1F | 112.0 | 111.0
COCCCNC(=O)CSc1nc2c(sc3ccccc32)c(=O)n1CCc1ccc(OC)c(OC)c1 | 106.0 | 112.0
O=C(CCOc1ccccc1)N(Cc1cccnc1)c1nc2c(Cl)cccc2s1 | 104.0 | 109.0
COc1ccc(N2CCN(C(=O)Nc3cccc(C(F)(F)F)c3)CC2)cc1 | 104.0 | 101.0
Cc1ccc(NC(=O)Cn2cc3c(n2)CCCC3)c(C)c1 | 106.0 | 111.0
CCOc1ccccc1NC(=O)N1CCC(n2c(C)nc3cccnc32)CC1 | 106.0 | 115.0
CCN(CC)S(=O)(=O)c1nnc(NC(=O)COc2ccccc2)s1 | 111.0 | 110.0
O=C(Cn1c(=O)n(Cc2ccc3c(c2)OCO3)c(=O)c2oc3ccccc3c21)Nc1ccccc1 | 105.0 | 102.0

Reformatted in CSV form: part of the list above.
compound,Polio RdRp inh,Polio RdRp inh intensity
O=C(CCOc1ccccc1)N(Cc1cccnc1)c1nc2c(Cl)cccc2s1,104.0,109.0
COc1ccc(N2CCN(C(=O)Nc3cccc(C(F)(F)F)c3)CC2)cc1,104.0,101.0
Cc1ccc(NC(=O)Cn2cc3c(n2)CCCC3)c(C)c1,106.0,111.0
CCOc1ccccc1NC(=O)N1CCC(n2c(C)nc3cccnc32)CC1,106.0,115.0

More records
SMILES | Polio RdRp inh | Polio RdRp inh intensity
Cc1ccc(NC(=O)c2cnc(N3CCCC3)nc2C)cc1F | 109.0 | 111.0
Cc1ccc(-c2nnc(Nc3cccc(Br)c3)c3ccccc23)cc1S(=O)(=O)N1CCCCC1 | 102.0 | 103.0
N#CC1=C2SCN(C3CCCCC3)CN2C(=O)CC1c1ccc(F)cc1 (configuration not stated) | 84.0* | 85.0*
COc1cccc(CNC(=O)Cn2cc3c(n2)-c2c(oc(C(=O)N4CCCC4)c2C)CC3)c1 | 109.0 | 112.0
CCc1nn(Cc2ccc(Cl)cc2)c(=O)c2cc3cc(C)ccc3n12 | 112.0 | 112.0
Cc1ccc(OCC(=O)OCc2cc(=O)n3nc(C4CC4)sc3n2)cc1 | 101.0 | 97.0
COc1cc(NC(=O)Cn2c(=O)oc3cc(S(=O)(=O)N4CCCCCC4)ccc32)cc(OC)c1 | 103.0 | 103.0
COc1ccc(NC(=O)CN2CCN(c3ccccc3F)CC2)c(OC)c1 | 104.0 | 106.0
COc1ccc(NC(=O)CSc2cn(CC(=O)N3CCOCC3)c3ccccc23)cc1OC | 123.0 | 123.0
CCOC(=O)c1c(Nc2ccc(C)c(C)c2)nnc(-c2ccccc2)c1-c1ccccc1 | 106.0 | 107.0
CCCn1c2ccccc2c2cnn(CC(=O)Nc3cccc(C(=O)OCC)c3)c(=O)c21 | 112.0 | 110.0
COC(=O)c1cc(-c2ccc(Cl)cc2)c2c(=O)[nH]c(=O)n(C)c2n1 | 108.0 | 111.0
CCN(CC)c1ccc(-n2nc3cc(C)c(NC(=O)c4ccccc4C)cc3n2)c(C)c1 | 110.0 | 112.0
COc1ccc(-n2nc(C(=O)NCCc3ccc(OC)c(OC)c3)c3c4ccccc4n(C)c3c2=O)cc1Cl | 106.0 | 109.0
Nc1nc(N)c(S(=O)(=O)c2ccccc2)c(Nc2ccc(Br)cc2)n1 | 100.0 | 107.0
Cc1ccc(Cl)cc1N1CCN(C(=O)c2ccc(CS(=O)c3ccccc3)o2)CC1 (configuration not stated) | 105.0 | 96.0
CCn1cc(C(=O)NCCc2ccc(C)cc2)c(=O)c2cc(S(=O)(=O)N3CCCCC3)ccc21 | 107.0 | 101.0
CCc1ccc(-n2c(=O)c3c(C)c(C(=O)N(C)C)sc3n(CC(=O)Nc3cc(Cl)ccc3C)c2=O)cc1 | 106.0 | 93.0
CCOc1ccc(CCNC(=O)Cn2nc(CC)n3c(cc4sc(CC)cc43)c2=O)cc1OCC | 101.0 | 103.0
Cc1ccc(C)c(N2CCN(C(=O)c3cc(S(=O)(=O)N4CCCC4)c[nH]3)CC2)c1 | 106.0 | 101.0
Cc1ccc(S(=O)(=O)c2c(Nc3cccc(Cl)c3)sc(C(=O)c3ccc4c(c3)OCO4)c2N)cc1 | 113.0 | 112.0
CCOc1cccc(CNC(=O)c2ccc(N3CCCC3)c(NC(=O)Nc3ccccc3CC)c2)c1 | 99.0 | 96.0
O=C(Nc1cc(NC(=O)c2ccccc2Cl)ccc1Cl)c1ccccc1 | 104.0 | 113.0
Cc1cc(-c2ccc(C)c(S(=O)(=O)N3CCCC(C)C3)c2)on1 (configuration not stated) | 113.0 | 109.0

Full records from above:
`Cc1ccc(Cl)cc1N1CCN(C(=O)c2ccc(CS(=O)c3ccccc3)o2)CC1` (configuration not stated) as listed: Polio RdRp inh = 105.0; Polio RdRp inh intensity = 96.0
`COc1ccc(S(=O)(=O)c2cn(CC(=O)Nc3cc(C)ccc3C)c3ccccc3c2=O)cc1` as listed: Polio RdRp inh = 112.0; Polio RdRp inh intensity = 114.0

(more compounds)
SMILES | Polio RdRp inh | Polio RdRp inh intensity
O=C(NCc1ccc(Cl)cc1)c1cnc(N2CCCCC2)c2ccccc12 | 98.0 | 103.0
CCC(C)NC(=O)c1ccc2c(c1)N(Cc1cccc(Cl)c1)C(=O)c1ccccc1S2=O (configuration not stated) | 103.0 | 104.0
CCc1c(C)c2ccc(O)c(CN3CCN(c4ccc(OC)cc4)CC3)c2oc1=O | 109.0 | 104.0
CCOc1ccc(CNC(=O)c2cnc3sc(N4CCCCCC4)nn3c2=O)cc1OC | 111.0 | 110.0
CCOCCCNC(=O)C(c1ccc(C)cc1)N(Cc1ccc2c(c1)OCO2)C(=O)c1ccccc1O (configuration not stated) | 105.0 | 104.0
COc1ccc(Br)cc1CNC(=O)CN1C(=O)c2cccnc2Oc2ccc(C)cc21 | 105.0 | 110.0
Cc1c(NS(=O)(=O)c2ccc(C(C)(C)C)cc2)c(=O)n(-c2ccccc2)n1C | 104.0 | 107.0
CCN(Cc1ccccc1)S(=O)(=O)c1ccc2[nH]c3c(c2c1)CCCCC3 | 107.0 | 108.0
COc1ccc(C(=O)NCc2nnc(SCC(=O)Nc3ccc(C)cc3)n2-c2ccccc2)cc1 | 105.0 | 103.0
COC(=O)CSc1ccc2nnc(CCNS(=O)(=O)c3ccccc3)n2n1 | 102.0 | 97.0
Cn1c(C(=O)NCc2ccccc2F)cc2cc(S(=O)(=O)N3CCCCC3)ccc21 | 104.0 | 106.0
COc1ccc(Br)cc1CNC(=O)CCC(=O)N1CCSc2ccccc21 | 103.0 | 104.0
COc1cccc(N2CCN(S(=O)(=O)c3ccc(-c4ccno4)cc3OC)CC2)c1 | 107.0 | 113.0
CCOC(=O)c1c(S(=O)(=O)N2CCCC(C(=O)Nc3ccc(OCC)cc3)C2)c(C)n(C)c1C (configuration not stated) | 101.0 | 105.0
COc1ccc(NC(=O)c2cc3c(s2)-c2c(C)cccc2OC3)c(OC)c1 | 104.0 | 109.0
NC(=O)c1cc(S(=O)(=O)NCc2cccc(Br)c2)cs1 | 107.0 | 111.0
Cc1c(CNCc2ccc(Cl)cc2)c(C(=O)O)c(C)n1Cc1ccc(F)cc1 | 112.0 | 114.0
COc1ccc(C)cc1NC(=O)c1cc2c(s1)-c1ccccc1SC2 | 108.0 | 109.0
